Six1-Eya2 blk = blocks human Six1 binding to Eya2; AlphaScreen GST-Six1/His-Eya2 binding, biochemical; hits give low values; control for the full effect not named in the record; activity change, % (concentration not given with the values); 0.56% of 360,000 active; AID 651725; in the data active = activity change below about -65%; inconclusive = about -30% to -65%; inactive = above about -30%; also: % is scaled to controls: 0 for no effect and ±100 for the full control effect
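Six1/Eya2 binding was read as AlphaScreen signal after compounds were pinned into GST-Six1 plus His-tagged Eya2 (5X stock 250/500 nM) in pH 8.0 Tris/NaCl/TCEP buffer, beads added, then incubated 1 h, 37 C, dark.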
D2 potentiator = positive allosteric modulators of human D2 dopamine receptor; DiscoveRx D2 beta-arrestin cells, luminescence, 90 min; 100% = 57 uM dopamine signal; 0.23% of 360,000 active; P14416; potentiation, % (test concentration not listed); active = potentiation of 50% or more; inconclusive = 30% to 50%; inactive = 30% or less;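 also: compound concentration not given in the record; tested on top of an EC20 dose of dopamine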
Target sequence (P14416 whole entry, looked up): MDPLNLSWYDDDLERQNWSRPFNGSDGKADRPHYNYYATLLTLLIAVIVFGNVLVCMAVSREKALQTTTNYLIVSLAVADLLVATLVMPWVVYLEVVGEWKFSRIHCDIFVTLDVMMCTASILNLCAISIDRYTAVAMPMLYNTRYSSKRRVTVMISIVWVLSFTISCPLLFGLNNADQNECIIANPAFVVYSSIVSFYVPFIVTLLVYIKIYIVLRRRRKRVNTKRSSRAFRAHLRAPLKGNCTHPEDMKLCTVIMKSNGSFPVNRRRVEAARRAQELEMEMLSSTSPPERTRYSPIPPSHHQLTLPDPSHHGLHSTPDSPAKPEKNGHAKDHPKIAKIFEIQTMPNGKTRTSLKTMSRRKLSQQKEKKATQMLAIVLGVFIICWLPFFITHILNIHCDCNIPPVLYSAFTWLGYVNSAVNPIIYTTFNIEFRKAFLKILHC
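D2 cells co-treated with compound plus 50 nM dopamine (EC20) for 90 min at 37 deg C to detect potentiation. Beta-arrestin recruitment was read as enzyme-fragment luminescence after 1 h at ambient temperature. Full response was set by 57 uM dopamine.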
CtBP-E1A blk = blocks the CtBP interaction with E1A | activity change, % (concentration not given with the values) | 0.49% of 340,000 active | AlphaScreen GST-E1A/His-CtBP binding, 1536-well; hits give low values; control for the full effect not named in the record; in the data active means activity change below about -65%; inconclusive means about -30% to -65%; inactive means above about -30%; also: % is scaled to controls: 0 for no effect and ±100 for the full control effect
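Steps: dispense buffer (Tris pH 8.0, NaCl 300 mM, TCEP 1 mM, BSA, Tween 20); add 5X protein mix (GST-E1A, His-CtBP, 125 nM each); pin 23 nL compound; 2 h at 37 °C, dark; add 5X beads (50 ug/mL); 1 h; read.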
TRPV1 PAM = enhances activation of the human vanilloid receptor TRPV1; potentiation, % at 8.33 µM; Q8NER1; TRPV1-expressing cells, Fluo-8 calcium influx, capsaicin EC20 potentiation; host cell line not named in the record; control for the full effect not named in the record; 0.02% of 320,000 active; active means potentiation above 80%; inconclusive means 30% to 80%; inactive means below 30%; also: 0% is about no effect
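Fluo-8 calcium influx in TRPV1-expressing cells, kinetic read (ex 480/em 520 nm). Compound added and read 3 min for agonist activity, followed by capsaicin at EC20 final and 2 min further read for enhancement.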
PINK1 modulator = modulators of PINK1 expression; 0.2% of 410,000 active; Potency, µM (doses to about 76.6 µM), for inactives: at the highest dose activation (PINK1 increase), hits mostly activators; AID 624263; PINK1 immunofluorescence, high-content cytometry, 24 h; active = well fitted activation curve with a large enough effect; inconclusive = small, poorly fitted or top-dose-only effect; inactive = flat fitted curve, though single readings scatter; cell line not stated here;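 also: potency is read from the fitted curve at half-maximal effect; % of control where 0% means no effect; nearly all actives have a fitted effect of over 65% in size; a mitochondrial uncoupler was the plate control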
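Cells are seeded, rested 12 hours, then given compound at five concentrations or DMSO for 24 hours. After fixation, blocking and antibody staining, PINK1 amount and mitochondrial localization are scored; CCCP serves as control.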
Sfp PPTase inh = blocks B. subtilis Sfp PPTase activity | Potency, µM, for the others: max response, negative = inhibition, most hits filed as inhibitors | 3.5% of 310,000 active | Biochemical Sfp PPTase activity, qHTS | Q9F4F7; active = well fitted inhibition curve with a large enough effect; inconclusive = small, poorly fitted or top-dose-only effect, or another doubt; inactive = no such curve, though single readings can be large or run the other way;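 also: the enzyme is Sfp with the accession as filed and its product quenches rhodamine fluorescence; potency is read from the fitted curve at half-maximal effect; 0% = enzyme reaction without inhibitor and -100% = no enzyme wells; top concentration of the series not given in the record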
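Compounds were incubated with enzyme (final 15 nM) for 15 min at room temperature before substrate addition started the reaction. Fluorescence at 525 nm excitation, 598 nm emission was recorded immediately and after 30 minutes.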
D2 agonist = agonists of human D2 dopamine receptor (beta-arrestin); P14416; 0.084% of 360,000 active; activation, % (no concentration beside the values); AID 624465; DiscoveRx PathHunter D2 beta-arrestin, luminescence, 90 min; 100% = 57 uM dopamine signal; in the data active = activation above about 40%; inconclusive = about 15% to 40%; inactive = below about 15%; also: compound concentration not given in the record; the text of the record calls up to 30% inactive
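DiscoveRx PathHunter D2 beta-arrestin cells (2,100/well) attached overnight, then compound-stimulated 90 min at 37 C in HBSS/10 mM HEPES/0.1% Tween-20 buffer; beta-galactosidase complementation read by luminescence after 1 h at ambient temperature. Dopamine 57 uM final (EC100) as control.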
Starred values were filed as active, the others as inactive; u = inconclusive; x = not tested or not shown; [ ] = remark or other dose.

entry	structure	Six1-Eya2 blk	D2 potentiator	CtBP-E1A blk	TRPV1 PAM	PINK1 modulator	Sfp PPTase inh	D2 agonist
1	Cc1cc(N2CCOCC2)nc2ccc(NC(=S)N3CCN(Cc4ccccc4)CC3)cc12	-3	-15	-16	-1	1.6%	1%	-2.2
2	O=C(NCc1ccccc1)C1c2ccccc2OCC(=O)N1CCc1ccccc1 (stereo not given)	-2	x	-5	x	0.3%	x	x
3	OCCNc1nc(SCc2ccccc2)nc2sc3c(c12)CCC3	-19	-34	-15	7	20%	-5%	-4.4
4	CSc1ccc(S(=O)(=O)NC2CC3CCC2C3)cc1 (stereo not given)	7	-4	-2	-6	7.9%	10%	-5.1
5	CC(C)CCc1c(O)nc(SCC(C)C)[nH]c1=O	1	-4	-5	27	-0.2%	10%	-4.2
6	CC(C)(C)NC(=O)Cn1c(SCC(=O)NC2CCCCC2)nc2ccccc21	3	1	-1	-10	11%[38.3 µM]	6%	-1.7
7	COc1ccc(C(=O)N/N=C/c2ccc(OC)c(CN3CCc4cc(OC)c(OC)cc4C3C)c2)cc1 (stereo not given)	-11	-9	-5	-7	1.7%	100µM*	-0.5
8	C=CCn1c(SCC(=O)c2ccc(Cl)cc2)nnc1-c1ccc2c(c1)OCO2	-11	-9	0	-14	0.4%	7%	-2.2
9	CCC1=Nc2cc(C(=O)NCc3ccco3)ccc2Sc2ccc(C)cc21	-12	22	-21	2	-2.4%	-13%	-0.8
10	CC(=O)Oc1ccc(N(C(C)=O)S(=O)(=O)c2ccc3ccccc3c2)cc1	-14	2	x	-13	0.7%	-7%	3.4
11	COc1cc(NC(=O)C2CCN(S(=O)(=O)c3ccc(Cl)cc3)CC2)ccc1-n1cnnn1	-9	3	2	0	3.3%[38.3 µM]	-8%	2.9
12	CC(=O)Nc1ccc(C(=O)N2CCCCC2c2cc(C(=O)NCc3ccccc3)no2)cc1 (stereo not given)	-2	-1	5	x	4.3%	x	2.0
13	O=C(CSC1=NCCS1)Nc1nc(-c2ccccc2)cs1	-5	-3	-3	-1	0.3%	u	-4.9
14	O=C(NCc1ccccc1Cl)C(=O)NCC1OCCN1S(=O)(=O)c1ccc(F)cc1 (stereo not given)	0	-22	1	3	3.3%	-1%	-2.9
15	CCOc1cc2[nH]c(=S)n(CC3CCCN3CC)c(=O)c2cc1OCC (stereo not given)	-1	-11	-3	-4	1.1%[38.3 µM]	8%	-3.4
16	Cc1cc(N2CCCC2)ccc1/C=C1\NC(=S)N(C)C1=O	u	-5	-24	-14	21%	-15%	-1.3
17	CCOc1ccc(OCC)c(Nc2cc(C)nc3ncnn23)c1	6	-2	-18	18	4.9%	-2%	-2.4
18	CCOC(=O)N1N=C(c2ccc(OC)cc2)CC1(O)C(F)(F)F (stereo not given)	4	-8	x	-5	1.1%	-2%	-7.3
19	CC(C)(C)OC(=O)[C@H](Cc1ccccc1)NC(=O)c1nc[nH]c1C(=O)N1CCNCC1	4	-2	0	x	1.2%	x	-0.6
20	COc1ccc([C@H]2CC(=O)C=C(c3cc(C)ccc3F)C2)cc1	0	-3	8	-8	2.6%	x	-7.9
21	Cc1ccc(CSC2=Nc3ccccc3C3=NC(=O)CN23)cc1	-7	-14	x	-10	0.8%	5%	-5.0
22	CCC(C)(C(=O)NC1CCCC1)N(C(=O)c1ccccn1)c1ccccc1 (stereo not given)	3	-10	-3	5	2.9%	18%	-1.1
23	CCCCOc1ccc(C(=O)NCC(=O)NCC(c2ccc(F)cc2)N2CCOCC2)cc1 (stereo not given)	3	5	-2	-8	-0.9%	x	-2.1
24	OCC1(Cc2ccc(Cl)cc2)CCN(Cc2ccc3nsnc3c2)CC1	-12	-20	-4	-1	-1.1%	0%	3.1
25	COc1ccccc1C(CNC(=O)c1cccc(S(=O)(=O)N2CCCc3ccccc32)c1)N(C)C (stereo not given)	-3	-27	-7	x	-0.1%	x	-1.7
26	COc1ccc(Cl)cc1NC(=S)NCCO	0	-7	5	u	0.4%	4%	0.9
27	COc1cc(/C=N/NC(=O)c2cc(-c3ccc4c(c3)OCO4)n[nH]2)ccc1O	-19	4	-26	2	-0.5%	-28%	6.4
28	CCn1c(=Nc2ccc(N3CCOCC3)cc2)ccc2ccccc21	-7	-15	0	-10	-3.3%	3%	0.3
29	Cc1ccc(Sc2cnn(-c3ccccc3)c(=O)c2Cl)cc1	1	-3	-2	7	8.2%	-10%	-2.0
30	CC(=O)CCC(=O)N1CCC(n2nccc2NC(=O)c2ccccc2C)CC1	13	-6	0	3	-1.1%	9%	-1.6
31	COc1ccc(-c2cc(N3CCCC3)n3ncnc3n2)cc1	-4	0	-14	5	0.3%	18%	-2.0
32	CCCCN1C(=O)C(CC(=O)NCCCN(C)C)CC(C(=O)N(CC)CC)=C1C (stereo not given)	0	-1	-2	x	1.1%	x	-9.3
33	CS(=O)(=O)N1CCN(c2ccccc2NC(=O)c2cccs2)CC1	-1	15	6	-4	-1.3%	11%	-2.4
34	Cc1cccc(OCC(=O)OC(C)C(=O)Nc2ccc(Cl)cn2)c1 (stereo not given)	3	0	13	-2	-1.4%	x	-4.7
35	NCCCn1c(C(=O)c2cc(Cl)c(N)c(Cl)c2)c2ccccc2[n+]1[O-]	-6	-11	-4	u	0.1%	x	-3.2
36	COc1cc(-c2cc3nc(NCc4cccs4)ccn3n2)cc(OC)c1OC	-18	6	-11	x	1.9%	x	8.1
37	CCOc1ccc(NC(=O)CSc2nnc(Cc3cccn3C)n2-c2ccc(F)cc2)cc1	-29	-1	-15	-4	0.4%	-1%	1.7
38	O=c1[nH]c(SCCOc2ccccc2)nc2ccccc12	-5	-11	-6	6	12%[38.3 µM]	13%	0.0
39	CC(C#CCN1CCCCC1)OCCOCc1ccccc1 (stereo not given)	5	-48	3	0	2.0%	12%	-7.9
40	Cn1c(=O)c2c(nc(CN3CCOCC3)n2Cc2ccccc2)n(C)c1=O	13	-4	3	x	0.3%	x	-0.1
41	S=C(NCCCc1ccccc1)Nc1ccc(Br)cc1	0	-21	5	-12	u	4%	-9.2
42	CC(C)c1ccc2[nH]c3nc(SCC(=O)NC4CC4)nnc3c2c1	2	-5	-19	-11	u	22%	-6.0
43	Cc1nc(N)sc1N=Nc1c(C)n(C)n(-c2ccccc2)c1=O	-67*	4	u	-6	3.5%	2%	2.4
44	CCOC(=O)c1c(-c2ccccc2)oc2ccc(OCC(O)CN(C)C)cc12 (stereo not given)	-5	-9	u	6	-4.2%	-11%	2.3
45	Cc1ccccc1C(=O)N1CCN(c2ccc(N3CCOCC3)nn2)CC1	6	-5	0	3	1.3%	x	1.1
46	Cc1cc(OCCCCCNCCO)cc(C)c1Cl	5	-19	2	15	12%[38.3 µM]	-21%	-2.5
47	COc1ccc(C(=O)N2CCN(C(C)=O)CC2)cc1S(=O)(=O)NCc1ccc(Cl)cc1	0	-8	3	0	-1.4%	3%	-2.4
48	Cc1ccc(OCC(=O)NCCO)c(Br)c1	20	2	7	-3	0.9%	4%	5.7
49	CCOC(=O)N1CCC(NC(=O)C2CCN(S(=O)(=O)N3CCCC3)CC2)CC1	2	-9	1	22	1.7%[38.3 µM]	14%	-0.4
50	CC(C)c1ccc(NC(=O)C2CCN(S(C)(=O)=O)CC2)cc1	10	-6	3	-14	-0.7%	9%	-1.7
51	CC12CN(C(=S)Nc3ccccc3)CC(C)(CN(C(=S)Nc3ccccc3)C1)C2=O	3	-6	0	6	3.4%	-11%	-1.6
52	Cc1cc(C)n(/N=C/c2ccco2)c(=O)c1C#N	-9	-5	7	8	-0.3%	-9%	-2.0
53	N#CC1(Nc2ccc(-c3ccc(NC4(C#N)CCCC4)cc3)cc2)CCCC1	-8	-6	26	x	-2.2%	x	-2.6
54	COc1ccc(NC(=O)c2cccs2)c([N+](=O)[O-])c1	-7	u	-15	0	-1.7%	11%	5.3
55	O=C(Nc1ccc(Cl)cn1)c1ccc([N+](=O)[O-])o1	0	-6	0	-1	-0.8%	15%	7.3
56	CCOC(=O)CSc1nnc(Cn2nnc3ccccc32)n1-c1ccc(F)cc1	5	-1	7	-18	-0.9%	5%	-2.9

Part of the list above in order of molar mass, rising.
entry	structure	Six1-Eya2 blk	D2 potentiator	CtBP-E1A blk	TRPV1 PAM	PINK1 modulator	Sfp PPTase inh	D2 agonist
13	O=C(CSC1=NCCS1)Nc1nc(-c2ccccc2)cs1	-5	-3	-3	-1	0.3%	u	-4.9
22	CCC(C)(C(=O)NC1CCCC1)N(C(=O)c1ccccn1)c1ccccc1 (stereo not given)	3	-10	-3	5	2.9%	18%	-1.1
45	Cc1ccccc1C(=O)N1CCN(c2ccc(N3CCOCC3)nn2)CC1	6	-5	0	3	1.3%	x	1.1
53	N#CC1(Nc2ccc(-c3ccc(NC4(C#N)CCCC4)cc3)cc2)CCCC1	-8	-6	26	x	-2.2%	x	-2.6
9	CCC1=Nc2cc(C(=O)NCc3ccco3)ccc2Sc2ccc(C)cc21	-12	22	-21	2	-2.4%	-13%	-0.8
24	OCC1(Cc2ccc(Cl)cc2)CCN(Cc2ccc3nsnc3c2)CC1	-12	-20	-4	-1	-1.1%	0%	3.1
19	CC(C)(C)OC(=O)[C@H](Cc1ccccc1)NC(=O)c1nc[nH]c1C(=O)N1CCNCC1	4	-2	0	x	1.2%	x	-0.6
14	O=C(NCc1ccccc1Cl)C(=O)NCC1OCCN1S(=O)(=O)c1ccc(F)cc1 (stereo not given)	0	-22	1	3	3.3%	-1%	-2.9
25	COc1ccccc1C(CNC(=O)c1cccc(S(=O)(=O)N2CCCc3ccccc32)c1)N(C)C (stereo not given)	-3	-27	-7	x	-0.1%	x	-1.7

Remaining list, next part
entry	structure	Six1-Eya2 blk	D2 potentiator	CtBP-E1A blk	TRPV1 PAM	PINK1 modulator	Sfp PPTase inh	D2 agonist
57	COC(=O)c1c(C)[nH]c(C(=O)OCC(=O)N(CC(C)C)c2c(N)n(Cc3ccccc3)c(=O)[nH]c2=O)c1C	0	-17	-25	u	2.6%	x	-2.4
58	Cc1ccc(S(=O)(=O)N2CCCC(C(=O)NCc3ccccc3F)C2)cc1 (stereo not given)	-6	-2	5	2	-0.6%	19%	-1.5
59	Cn1c(=O)oc2cc(S(=O)(=O)N3CCC4(CC3)OCCO4)ccc21	2	2	1	18	0.5%	23%	0.4
60	Cc1ccc(S(=O)(=O)N(C)C)cc1NC(=O)Nc1ccccc1	7	-24	3	-1	-0.9%	3%	-1.3
